2A StopGo = FMDV 2A StopGo reporter, luciferase signal; Potency, µM (doses to about 57.9 µM), inactives show at the highest dose signal change, negative = less light; AID 1159524; hit rate 1.2% among 410,000; human cells with a luciferase reporter of 2A StopGo recoding; control for the full effect not named in the record; active = well fitted falling curve with a large enough effect; inconclusive = small, poorly fitted or top-dose-only effect; inactive = no such curve, though single readings can be large or run the other way; tested in HEK293T cells; note: % is set by controls: 0 for no effect and ±100 for the full control effect; nearly all actives have a fitted effect of over 45% in size; luciferase light after 4 h
Cruzain inh Det = inhibitors of Trypanosoma cruzi cruzain with detergent. Potency, µM, for the others: max response, negative = inhibition, actives largely listed as inhibitors. hit rate 0.43% among 200,000. purified cruzain, Z-FR-AMC fluorescence, 0.01% Triton. P25779. AID 1478; active = well fitted curve in the direction sought with a large enough effect; inconclusive = small, poorly fitted or top-dose-only effect, or another doubt; inactive = no such curve, though single readings can be large; an effect the other way counts as inactive or inconclusive;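 note: plate controls were neutral wells for no effect and buffer without enzyme for full effect; nearly all actives have a fitted effect of over 40% in size; top concentration of the series not given in the record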
Target sequence (P25779 123-467 limits assumed): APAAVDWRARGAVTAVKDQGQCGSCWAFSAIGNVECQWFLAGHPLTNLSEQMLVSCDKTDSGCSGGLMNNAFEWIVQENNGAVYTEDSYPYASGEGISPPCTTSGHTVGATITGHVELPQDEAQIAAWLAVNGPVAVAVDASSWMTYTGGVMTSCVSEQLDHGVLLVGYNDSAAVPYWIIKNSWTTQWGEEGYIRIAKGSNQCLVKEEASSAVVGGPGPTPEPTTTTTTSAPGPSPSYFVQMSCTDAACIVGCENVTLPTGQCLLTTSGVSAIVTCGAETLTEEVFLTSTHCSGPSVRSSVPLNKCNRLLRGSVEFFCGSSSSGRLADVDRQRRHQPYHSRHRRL
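Detergent-containing arm of a paired screen for aggregation-based inhibition: 0.01% Triton X-100 present. Cruzain at 1.5 nM cleaved 2 uM Z-FR-AMC at pH 5.5 with 5 mM DTT; AMC fluorescence gain over 60 s measured activity.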
Cruzain noTriton = inhibitors of Trypanosoma cruzi cruzain without detergent | hit rate 2.3% among 200,000 | Potency, µM, inactives show max response, negative = inhibition, actives largely listed as inhibitors | purified cruzain, Z-FR-AMC fluorescence, no detergent | P25779; active = well fitted curve in the direction sought with a large enough effect; inconclusive = small, poorly fitted or top-dose-only effect, or another doubt; inactive = no such curve, though single readings can be large; an effect the other way counts as inactive or inconclusive;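 note: plate controls were enzyme without inhibitor for no effect and buffer without enzyme for full effect; nearly all actives have a fitted effect of over 40% in size; top concentration of the series not given in the record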
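Purified cruzain at 1.5 nM, pre-incubated 15 min with compound at room temperature in 100 mM sodium acetate pH 5.5, 5 mM DTT, 0.00005% Triton X-100. Reaction started with 2 uM Z-FR-AMC; AMC fluorescence increase over 60 s gives rate.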
Lassa entry inh = Lassa virus entry inhibition | Potency, µM (top dose mostly 37.9 µM), without a hit: at the highest dose activity change, negative = inhibition, usual class: inhibitors | Lassa virus pseudotype entry inhibition, cell reporter; control for the full effect not named in the record | hit rate 1.2% among 300,000; active means well fitted inhibition curve with a large enough effect; inconclusive means small, poorly fitted or top-dose-only effect, or effect the other way; inactive means flat fitted curve, though single readings scatter; tested in HEK293 cells; note: % is set by controls: 0 for no effect and ±100 for the full control effect; nearly all actives have a fitted effect of over 50% in size; luciferase read-out
NS1 inh = blocks influenza NS1 protein function; Potency, µM (titrated, usually from 46.1 µM), for the others: at the top dose activity, positive = more growth; hit rate 0.4% among 270,000; S. cerevisiae slowed by influenza A NS1, growth recovery by OD600; note: actives are rising curves; nearly all actives have a fitted effect of over 50% in size
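Read-out: OD600 growth recovery of NS1-expressing budding yeast. Cells grown overnight at 30C in -URA glucose medium, washed, resuspended and diluted 1:100 in 2% galactose assay medium, pH 6.0. Same strain lacking NS1 served as positive control.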
SARS PLpro yeast = blocks SARS-CoV papain-like protease in a yeast assay; S. cerevisiae expressing SARS-CoV PLpro, growth rescue; control for the full effect not named in the record; Potency, µM (series often up to 32.9 µM), without a hit: at the highest dose activity, positive = growth rescue; hit rate 0.19% among 330,000; note: 0% is about no effect; nearly all actives have a fitted effect of over 55% in size; growth read by luminescence after 48 h
RE007 growth inh = less growth of the S. pombe RE007 Vpr strain; AID 651644; hit rate 0.21% among 360,000; S. pombe RE007 Vpr strain, BacTiter-Glo ATP luminescence, 24 h; control for the full effect not named in the record; Potency, µM (top dose mostly 92.2 µM), without a hit: at the highest dose activity change, negative = less growth; active = well fitted falling curve with a large enough effect; inconclusive = small, poorly fitted or top-dose-only effect; inactive = no such curve, though single readings can be large or run the other way;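 note: % is set by controls: 0 for no effect and ±100 for the full control effect; nearly all actives have a fitted effect of over 50% in size; the assay follows cell death caused by Vpr and the record does not say whether a fall means rescue or toxicity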
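Fission yeast RE007 carrying one integrated HIV-1 vpr copy, seeded at OD 0.01 in PMG+AL medium with 23 nL pinned compound. Grown 24 h at 30 degrees; viability read by BacTiter-Glo luminescence after 5 min.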
Marburg entry inh = blocks Marburg virus binding to or entry into cells; Marburg virus pseudotyped entry inhibition, cell reporter; control for the full effect not named in the record; about a third of the inactives were read at about 46 µM; Potency, µM (highest dose often 37.8 µM), for inactives: at the highest dose activity change, negative = inhibition, actives largely listed as inhibitors; hit rate 1.8% among 300,000; AID 540276; active = well fitted inhibition curve with a large enough effect; inconclusive = small, poorly fitted or top-dose-only effect, or effect the other way; inactive = flat fitted curve, though single readings scatter; tested in HEK293 cells; about a fifth of its hits are not listed in these tables; note: % is set by controls: 0 for no effect and ±100 for the full control effect; luciferase read-out
An asterisk follows results filed as active; ? = inconclusive; / = not tested or not shown; [ ] = remark or other dose. Unless noted, calls come from the whole dose curve; as a rule, active means well fitted rising curve with a large enough effect; inconclusive means small, poorly fitted or top-dose-only effect; inactive means no such curve, though single readings can be large or run the other way. Potency is the fitted concentration of half-maximal effect.

Second line of a record: 2A StopGo | Cruzain inh Det | Cruzain noTriton | Lassa entry inh | NS1 inh | SARS PLpro yeast | RE007 growth inh | Marburg entry inh
COc1ccc2[nH]c3c(=O)n(Cc4ccncc4)cnc3c2c1
  8% | / | / | 0%[46.1 µM] | -2% | 0% | 3% | ?
COc1ccccc1N1CCN(C2CCCN(S(=O)(=O)c3cccc(Cl)c3)C2)CC1 (stereo not given)
  ? | / | / | ? | -13% | -5% | -19% | -18%
Cn1c(SCc2ccc(Cl)cc2)nc(C(F)(F)F)cc1=O
  ? | -7.9% | 7% | 0% | 5% | -6% | 5% | ?
CCCCn1c(-c2ccco2)nc2ccccc2c1=O
  -20% | -1.5% | -2% | 6% | -15% | 7% | -7% | 4%
COc1ccc(-n2cc(C(=O)Nc3cc(F)ccc3F)c3ccccc3c2=O)cc1
  -22% | -13% | 9% | 0%[46.1 µM] | / | / | / | /
COc1ccc(/C=N/NC(=O)c2cccnc2)cc1COc1ccc([N+](=O)[O-])c(C)c1
  40µM* | / | / | ? | 8% | -3% | -6% | ?
CCCOC(=O)C[N+](C)(C)CCOC1CC2CCC1(C)C2(C)C (stereo not given)
  ? | / | / | / | -1% | 0% | 10% | /
O=C(NCC1COc2ccccc2O1)c1cn(Cc2ccc(F)cc2)nn1 (stereo not given)
  1% | 5.7% | ? | 2% | -2% | -4% | -1% | -3%[46.1 µM]
O=C(N/N=C/c1cccnc1)c1cc2ccccc2cc1O
  73%[activator] | / | / | / | 12% | -5% | -13% | /
COc1ccc(C(=O)NCC(=O)Nc2cccc(S(=O)(=O)NCc3ccco3)c2)cc1OC
  30% | / | / | 9% | / | 0% | 12% | -20%[46.1 µM]
CCOC(=O)c1c(C)n(S(=O)(=O)c2ccc(C)cc2C)c2ccc(NS(=O)(=O)c3ccc(C)cc3C)cc12
  13% | 0.2% | 1.6µM* | ? | / | / | / | /
O=C(CN(CC1CCCO1)C(=O)c1nsc(Cl)c1Cl)NC1CCCC1 (stereo not given)
  -7% | / | / | -14% | 2% | 0% | 7% | -24%
CC(=O)c1cccc(NC(=S)NC2CCCCCCC2)c1
  14% | / | / | 25%[46.1 µM] | 16% | 1% | 3% | 18%[46.1 µM]
Cc1noc(C(=O)NC2CCCCC2)c1Cl
  17% | / | / | 3% | 4% | -5% | 4% | 14%
CC(=O)NNC(=O)c1csc(-c2csc(C)n2)n1
  -13% | / | / | 3% | -2% | 0% | -9% | 14%
COc1ccccc1[C@H]1C(c2ccc(F)cc2)=NN(c2ccccc2)[C@@H]1CO
  -24% | -1.4% | 32µM* | / | / | -79% | -1% | /
COc1ccc(/C=N/NC(=O)c2ccccc2)cc1OS(=O)(=O)c1ccccc1
  -23% | -6.8% | -2% | ? | -14% | -17% | 0% | ?
CCOC(=O)c1cc(-c2ccc(OC)cc2)nn1-c1ccc(C(=O)O)cc1
  -3% | / | / | -3%[46.1 µM] | 0% | -1% | 4% | ?
Cc1cccc(-c2nc(Nc3ccc(O)cc3)c3ccccc3n2)c1
  ? | / | / | 10%[46.1 µM] | -37% | -7% | -8% | ?
Cc1oc(C)c(S(=O)(=O)NCc2cccs2)c1C(=O)O
  -2% | / | / | / | -1% | -1% | -9% | /
CSc1ncc(Cl)c(C(=O)Nc2cccc(Cl)c2)n1
  -19% | / | / | / | 7% | -1% | ? | /
O=[N+]([O-])c1cc([N+](=O)[O-])c(Oc2cncc(Cl)c2)cc1NN1CCCCC1
  -10% | / | / | / | 22% | 3% | -3% | /
COc1cc(NC(=S)N2CCCC(CO)C2)c(OC)cc1Cl (stereo not given)
  1% | -2.4% | -3% | -6% | -3% | -17% | 0% | 2%
CC1CCCC(NC(=O)NC(=O)CCl)C1C (stereo not given)
  20µM* | -3.6% | 8% | 0% | -5% | ? | -8% | -8%
Cc1c(Cc2ccccc2)c(NCCN(C)C)n2c(nc3ccccc32)c1C#N
  -1% | / | / | -1% | -72% | -3% | -4% | ?
COc1ccc(NC(=O)CN2C(=O)C(c3ccc(C(C)(C)C)cc3)=NC2(C)C)cc1Cl
  11% | -4.7% | 1% | 14%[46.1 µM] | / | / | / | 10%[46.1 µM]
COc1ccccc1-c1nnc(NC(=O)C(C)C)s1
  25% | 6.8% | 11% | 19% | -1% | 0% | -14% | 22%
COc1ccc(N2CCN(CCNC(=O)Nc3cc(Cl)ccc3OC)CC2)cc1
  -18% | / | / | / | 3% | 0% | 2% | /
CCCCCCCNC(=O)CN1C(=O)CSc2ccc(S(=O)(=O)N3CCOCC3)cc21
  -5% | / | / | / | 10% | -2% | 2% | /
Cc1ccccc1-n1ncc2c1CC(C)(C)CC2NC(=O)C1CCC1 (stereo not given)
  12% | / | / | / | -10% | -3% | -4% | /

The last 2 records of the section before lead into the next:
Second line of a record: 2A StopGo | Cruzain inh Det | Cruzain noTriton | Lassa entry inh | NS1 inh | SARS PLpro yeast | RE007 growth inh | Marburg entry inh
CCCCCCCNC(=O)CN1C(=O)CSc2ccc(S(=O)(=O)N3CCOCC3)cc21
  -5% | / | / | / | 10% | -2% | 2% | /
Cc1ccccc1-n1ncc2c1CC(C)(C)CC2NC(=O)C1CCC1 (stereo not given)
  12% | / | / | / | -10% | -3% | -4% | /
O=C(Cn1cnc2ccccc2c1=O)N(Cc1ccco1)c1ccc(O)cc1
  15% | 3.0% | -3% | -27% | 4% | 5% | 8% | -10%
O=C(CCc1ccccc1)NCCc1ccc(F)cc1
  42%[activator] | / | / | / | 0% | 1% | -8% | /
CCn1cc(Cl)c(C(=O)Nc2ccccc2C(N)=O)n1
  -8% | / | / | 1%[46.1 µM] | / | -2% | 9% | ?
O=C(NC1CCCc2ccccc21)c1ccccn1 (stereo not given)
  4% | / | / | 7% | -19% | 2% | -13% | -15%
COCc1[nH]nc2c1C1(C(=O)Nc3ccc(F)cc31)C(C#N)=C(N)O2 (stereo not given)
  -24% | 2.1% | -1% | 14% | 6% | -2% | 1% | 0%
COc1ccc(N=C2C(=Nc3ccc(OC)cc3)N(c3ccccc3)C(=S)N2C(=O)c2ccc(Cl)cc2)cc1
  31%[activator] | -2.6% | 4µM* | 2% | 15% | 7% | -10%[3.69 µM] | 3%
CCN(CC)P(=O)(/C=C(\Cl)c1ccccc1)/C=C(\Cl)c1ccccc1
  15% | / | / | 12%[46.1 µM] | / | -1% | -23% | ?
CCOC(=O)c1ccc(NS(=O)(=O)c2cccc3nsnc23)cc1
  -6% | -8.2% | -8% | -26% | -26% | -10% | 0% | -16%[46.1 µM]
CCOC(=O)c1c(C)n(C)c2ccc(OC)c(NC(=O)c3cccs3)c12
  0% | -3.2% | -7% | 0% | 10% | 5% | -20% | 5%
Cc1ccc(C(=O)NCc2ccc3c(c2)CCO3)cc1C
  4% | / | / | ? | -2% | -1% | 16% | -21%[46.1 µM]
Cc1cccc(NC(=O)CNC(=O)COc2ccc(C(=O)c3ccc(F)cc3)cc2)c1C
  ? | -3.4% | ? | ? | -6% | 3% | 8% | ?
COc1ccc(C(=O)O/N=C(\N)Cc2cccs2)cc1OC
  4% | / | / | 1.8µM* | 11% | 0% | -7% | ?
CCOC(=O)C1CCN(C(=O)CN2C(=O)C(C(C)C)Oc3ccccc32)CC1 (stereo not given)
  19% | / | / | 14% | -17% | 3% | -5% | 2%[46.1 µM]
CCn1cc(C(=O)NP(=O)(Nc2ccc(C)cc2)Nc2ccc(C)cc2)c2ccccc21
  7% | / | / | / | 3% | 4% | 4% | /
Cn1nnnc1SCCNS(=O)(=O)c1ccccc1
  5% | 4.5% | -4% | 12% | -9% | 3% | 2% | -14%
COc1ccc(CC(NC(C)=O)C(=O)NC2CCN(C(=O)c3ccc([N+](=O)[O-])cc3)CC2)cc1OC (stereo not given)
  3% | / | / | / | -2% | -1% | 17% | /
COCCCn1c(=O)/c(=C\c2ccccc2OC(C)C)s/c1=C(/C#N)C(=O)Nc1ccc(C(=O)O)cc1
  ? | / | / | -9% | 3% | 0% | -12% | -2%[46.1 µM]
COC(=O)C1=C(C(=O)OC)SC2(S1)C(C(=O)OC)=C(C(=O)OC)SC1=C2c2cc(C)cc(C)c2NC1(C)C
  -21% | -3.8% | ? | ? | 9% | / | 4% | 14%

Whole records, quoted from the list. Values in the order: 2A StopGo	Cruzain inh Det	Cruzain noTriton	Lassa entry inh	NS1 inh	SARS PLpro yeast	RE007 growth inh	Marburg entry inh
Shown for CCn1cc(Cl)c(C(=O)Nc2ccccc2C(N)=O)n1 : -8%	/	/	1%[46.1 µM]	/	-2%	9%	?
Shown for O=C(CCc1ccccc1)NCCc1ccc(F)cc1 : 42%[activator]	/	/	/	0%	1%	-8%	/
Shown for CCOC(=O)c1c(C)n(C)c2ccc(OC)c(NC(=O)c3cccs3)c12 : 0%	-3.2%	-7%	0%	10%	5%	-20%	5%
Shown for COC(=O)C1=C(C(=O)OC)SC2(S1)C(C(=O)OC)=C(C(=O)OC)SC1=C2c2cc(C)cc(C)c2NC1(C)C : -21%	-3.8%	?	?	9%	/	4%	14%
Shown for O=C(Cn1cnc2ccccc2c1=O)N(Cc1ccco1)c1ccc(O)cc1 : 15%	3.0%	-3%	-27%	4%	5%	8%	-10%

Screening data: PubChem BioAssay, National Center for Advancing Translational Sciences (NCATS)
